Compound activity from PubChem.
H5N1 CPE – MDCK cell protection from H5N1 avian flu; cytopathic effect, luminescence, 72 h; stronger effect = higher value; no value below 0 was filed and about half of the inactive calls have no number; reference of the scale not given here; inhibition, % at 50 µM; 96,000 compounds, 0.07% hits; in the data active = inhibition above about 25%
* hit, by the source's call; i = inactive. This is a subset. The share of hits here may be higher or lower than overall.

SMILES | H5N1 CPE
Cc1cc(C)n2nc(S(=O)(=O)N(C)c3ccccc3)nc2n1 | 1.6
COc1ccc(CNC(=O)c2cc(-c3ccccc3O)n[nH]2)cc1 | i
Cn1c(=O)[nH]c(=O)c2c1nc(CN1CCN(c3cccc(Cl)c3)CC1)n2Cc1ccccc1Cl | 1.4
CN(C)CCCNCCCNC(=O)c1ccco1 | 0.6
Cc1cc(=O)oc2cc(OCC(O)CN3CCc4ccccc4C3)ccc12 (configuration not stated) | 1.1
CCN(CC)CCN(Cc1cc2cc(C)ccc2[nH]c1=O)C(=O)Nc1ccccc1OC | i
COC(=O)C1CCN(C(=O)COC(=O)c2n[nH]c3ccccc23)CC1 | 0.0
CNS(=O)(=O)c1cc(OCC(N)=O)c(C)cc1Cl | i
CCCCOc1ccc(C)cc1CN(CCO)CCO | i
C=CCn1c(SCC(=O)Nc2ccccc2CC)nnc1-c1ccncc1 | i
O=C(CN1C(=O)c2ccccc2C1=O)N1CCN(c2ccccn2)CC1 | 2.0
CC(C)(C)c1cc(C(=O)O)n[nH]1 | 0.2
N#C/C(C(N)=O)=c1/ccc2c(c1)N1C3=C(CCCC3)CC3CCCCC31N=2 (configuration not stated) | i
Nc1nnnn1NCc1cccc(OCc2ccccc2)c1 | 0.2
CCN(CC)CCOCCOc1ccccc1F | i
O=C(COC(=O)CCC(=O)c1ccc2c(c1)OCCO2)NCc1ccc2c(c1)OCO2 | i
CCOc1ccc(/C=C/[N+](=O)[O-])c2ccccc12 | i
FC(F)(F)c1cc(-c2ccccc2)nc(-n2cncn2)n1 | 3.5
Cc1ccccc1N(CC(=O)NCc1ccncc1)S(C)(=O)=O | 1.7
COc1ccccc1CCNC(=O)c1ccoc1C | i
COc1ccc(CCNc2oc(-c3ccco3)nc2C#N)cc1 | 1.4
Cc1ccccc1OCc1nnc(SCC(=O)NCc2ccccc2)n1C | 0.6
Cc1cc2n(n1)C(c1ccc(N(C)C)cc1)Nc1ccccc1-2 (configuration not stated) | i
O=C1CC(CCC(=O)NC2CC2)c2ccccc2N1 (configuration not stated) | 0.6
Cc1cccc(C)c1NC(=O)N1CC=C(n2c(=O)[nH]c3ccccc32)CC1 | i
COc1ccc(C2CCN(Cc3cccnc3)CC2O)cc1 (configuration not stated) | 1.2
CCOC(=O)c1nc2cc3n(c(C)c-2c1C)C(C)C(C)=C3C (configuration not stated) | i
CC1=C(C(=O)Nc2ccc(F)cc2)C(c2ccc(C)o2)C2=C(CC(C)(C)CC2=O)N1 (configuration not stated) | i
O=C(COc1ccc2c(c1)C(=O)CC1(CCCCC1)O2)NCc1ccccn1 | i
CCCCOC(=O)Nc1cc(C)c(Cl)cc1OC | i
c1ccc(Nc2nc3ccccc3o2)cc1 | i
O=C(Nc1ccc(N2CCCCC2)cc1)c1cncc(Br)c1 | i
O=C(NNC(=O)c1ccccc1[N+](=O)[O-])c1cnccn1 | 0.5
COC(=O)c1ccccc1NC(=S)NC(NC(=O)c1ccco1)C(Cl)(Cl)Cl (configuration not stated) | 0.8
Clc1cccc(N/N=C/c2ccc(N3CCOCC3)cc2)c1 | i
Cc1ccc(N(CC(=O)O)C2SC(=O)NC2=O)cc1 (configuration not stated) | i
CCc1ccccc1NC(=O)c1ccc(F)c(S(=O)(=O)N2CCC(C(N)=O)CC2)c1 | i
O=C(/C=N/O)NCCCN1CCCCCC1 | i
COCc1[nH][nH]c(=O)c1C=Nc1ccc(F)cc1F | i
Cn1c(CO)cnc1SCc1ccc([N+](=O)[O-])cc1 | i
Cc1nc2n[nH]c(N)c2c2c1COC(C)(C)C2 | i
Cc1nc2ccccc2c2oc(C(=O)NC3CC3)cc12 | i
CCOC(=O)c1oc2ccccc2c1NC(=O)CN1CCN(C)CC1 | 0.4
CC1(C)Cc2ccccc2C2CC(O)C(=O)N21 (configuration not stated) | i
COc1cc2c(cc1OC)CN(C(=O)CSc1nnc(C)s1)CC2 | i
CCC1CCCCN1Cc1ccc(OC)c(OC)c1 (configuration not stated) | 1.0
O=C(CSc1nncs1)NC(=O)NCc1ccccc1 | 0.5
CCOc1ccc(C2C(C(=O)c3ccco3)=C(O)C(=O)N2Cc2cccnc2)cc1OC (configuration not stated) | 2.4
O=C(CSc1nc2ccccc2c(=O)n1CCCO)NCc1ccccc1 | 0.8
c1ccc(-c2nc(NCC3CCCO3)c3oc4ccccc4c3n2)cc1 (configuration not stated) | i
OCCN1CCN(CC(O)COc2ccc(Cl)cc2)CC1 (configuration not stated) | i
CCC(c1nnnn1C(C)(C)CC)N(CCCO)Cc1cc2cccc(C)c2[nH]c1=O (configuration not stated) | 0.2
C=CCn1c(SCn2nnc3ccccc3c2=O)nnc1-c1ccc(F)cc1 | 0.2
CCCn1c(N)c(C(=O)CSc2nc(C)cs2)c(=O)[nH]c1=O | 1.1
O=C(COC(=O)C1COc2ccccc2O1)NC1CCS(=O)(=O)C1 (configuration not stated) | 0.7
Cc1csc(NC(=O)c2cccn2C)n1 | 0.7
CCOc1ccccc1Nc1ncnc2ccccc12 | i
O=C(CS(=O)(=O)Cc1ccccc1)Nc1cccnc1 | i
COc1c(F)c(F)c(C(=O)O)c(Nc2ccccc2)c1F | i
O=c1[nH][nH]cc1C=Nc1ccccc1O | i

(next part)
SMILES | H5N1 CPE
O=C(CCc1ccccc1)NCCCN1CCOCC1 | 0.6
COc1cnn(-c2ccccc2)c(=O)c1N(C)C | 0.4
Cn1c(Cc2cccs2)nnc1SCc1nc2ccccc2[nH]1 | 2.2
c1ccc(CN2CCN(c3nc(-c4ccccc4)nc(-n4ccnc4)n3)CC2)cc1 | i
Cc1sc2ncn(CC(=O)NCCCC(=O)N3CCC4(CC3)OCCO4)c(=O)c2c1C | i
O=C1CSC(=O)N1CC(O)COc1ccc(Cl)cc1 (configuration not stated) | 0.1
COC(=O)c1c(C(=O)OC)c(C)n(Cc2cccnc2)c1C | 1.0
Cc1ccc(C(=O)Nc2ccc(S(=O)(=O)N3CCN(C)CC3)cc2)o1 | i
CCCc1nc2sc3c(c2c(=O)n1N)CCC3 | 2.0
O=C(O)c1ccccc1C(=O)NCc1cccnc1 | 0.7
COC(=O)Cc1[nH]nc2c1C(c1cccc(OC)c1OC)C(C#N)=C(N)O2 (configuration not stated) | i
COc1ccc(C)cc1NC(=O)CN1CCN(c2ccc(F)cc2)CC1 | i
CC1=C(C(=O)OCc2ccccc2)C(c2ccco2)C2=C(CC(C)(C)CC2=O)N1 (configuration not stated) | i
CCN(CCNC(=O)c1cccc(N2CCCC2=O)c1)c1ccccc1 | i
Cc1ccccc1NC(=O)C1c2cccc[n+]2CC(=O)N1c1c(C)cccc1C (configuration not stated) | i
CCCCn1c2c(c(=O)n(C)c1=O)C(CC(=O)OCC(=O)Nc1cccc(C(F)(F)F)c1)C(=O)N2 (configuration not stated) | 1.1
COc1cccc(N(CC(=O)NC(C)(C)C)C(=O)C2CSC(=O)C2)c1 (configuration not stated) | i
CCOC(=O)C(C)n1cnc2c(nnn2-c2cccc(Cl)c2)c1=O (configuration not stated) | i
O=C(Nc1cccc2c1CCCC2)C1CCN(c2nnnn2-c2ccccc2)CC1 | i
COc1ccc(N(CC(=O)N2CCN(C)CC2)S(=O)(=O)c2ccccc2)cc1OC | i
CC(C)(C)NC(=O)CN(Cc1cccs1)C(=O)c1csnn1 | i
CCOc1ccc(-c2nc(C#N)c(NC3CC3)o2)cc1 | i
CC(C)(C)N=C1SCC(C)(/C=N/O)S1 (configuration not stated) | i
Cc1ccc(Cn2c(NCCc3ccccc3)nc3c2c(=O)n(C)c(=O)n3C)cc1 | 0.1
O=C(CC(=O)c1cc(Cl)ccc1O)c1ccccc1 | i
c1ccc2c(N3CCCCC3)nc(N3CCCC3)nc2c1 | i
CCC(=O)N(CC(=O)Nc1sc(C)c(C)c1C(N)=O)C1CCCCC1 | 0.1
CC(Nc1cc(=O)n(C)c(=O)[nH]1)c1ccccc1 (configuration not stated) | 0.2
Cc1ccc(C)c(NS(=O)(=O)c2c(C)ccc3nsnc23)c1 | i
COc1ccccc1C(=O)Nc1nnc(-c2ccco2)s1 | i
COC(=O)c1oc2nc(C)cc(C)c2c1N | i
NC(=O)NC(c1ccccc1)c1ccccc1F (configuration not stated) | i
CCc1cccc2c(=O)c(C(=O)N3CCCCCC3)c[nH]c12 | i
Cc1cc(C)c(S(C)(=O)=O)c(Oc2ccc(C(C)(C)C)cc2)n1 | i
COc1ccc(Br)cc1C(=O)Nc1ccc(O)cc1 | 1.0
c1cncc(CNC2=NCCCCC2)c1 | i

Among those listed so far, these have a CF3 group:
SMILES | H5N1 CPE
FC(F)(F)c1cc(-c2ccccc2)nc(-n2cncn2)n1 | 3.5
CCCCn1c2c(c(=O)n(C)c1=O)C(CC(=O)OCC(=O)Nc1cccc(C(F)(F)F)c1)C(=O)N2 (configuration not stated) | 1.1

(list continues)
SMILES | H5N1 CPE
COC(=O)c1ccc(OCc2nc(N)nc(N3CCOCC3)n2)cc1 | i
Cc1nnc(N(Cc2ccco2)C(=O)c2cccc(C#N)c2)s1 | 0.3
CC(C)NC(=O)Cn1c(SCC(=O)N2CCCc3ccccc32)nc2ccccc21 | 0.8
Cc1cc(C)c(C#N)c(Sc2nnnn2-c2ccccc2)n1 | 3.2
CCCCNS(=O)(=O)c1ccc(OC)c(Cl)c1Cl | 1.2
CSc1nc(NCc2ccco2)c2ccccc2n1 | 2.0
COc1cc(C(=O)NCCc2ccc(S(N)(=O)=O)cc2)cc(OC)c1OC | 0.5
Cc1cc(O)ccc1NC(=O)c1ccccc1 | i
COc1ccccc1N(C)S(=O)(=O)c1ccc(C(=O)NC(C)(C)C)cc1 | 0.2
CC1(c2ccccc2)NC(=O)N(CC(=O)NC(=O)NC2CCCC2)C1=O (configuration not stated) | 0.5
CCC(Cc1ccccc1)NC(=O)CN1C(=O)CSc2ncccc21 (configuration not stated) | i
Cn1c(=O)cc(OCC(=O)NC2CCCCC2)c2ccccc21 | 1.4
O=C(c1cccc(S(=O)(=O)N2CCOCC2)c1)N1CCN(c2ccc(F)cc2)CC1 | 0.5
COCCCNC(=O)C1CCN(c2nc(C)cc(C)n2)CC1 | 0.1
O=C(CN1CCN(C(=O)c2cccs2)CC1)Nc1ccc(Br)cc1 | i
CCNC(=O)C1CC(=O)N(Cc2ccc3c(c2)OCO3)C(=Nc2ccc(OCC)cc2)S1 (configuration not stated) | i
Cc1cc(NCCCN2CCOCC2)n2c(nc3ccccc32)c1C#N | 1.7
CCOc1ccc2ccccc2c1C(=O)N1CCN(c2ccccc2)CC1 | 5.0
Cc1ccc(S(=O)(=O)N(Cc2ccccc2)Cc2ccco2)cc1 | i
O=C(NCCN1CCN(c2ccccc2)CC1)C1CCN(S(=O)(=O)c2cccc3nonc23)CC1 | 1.1
Cc1cc(N2CCCC2=O)c(N)cc1N | 0.5
COC(=O)c1ccc(C2/C(=C(\O)c3ccc(OC)c(C)c3)C(=O)C(=O)N2c2cc(C)on2)cc1 (configuration not stated) | i
CC(=O)N(Cc1ccccc1)c1ccc(C(=O)O)cc1 | i
CCOC(=O)c1nnc(-c2ccccc2)nc1Sc1ccccc1Cl | 0.4
CN(C)CCN1C(=O)C(=O)/C(=C(/O)c2ccc(F)cc2)C1c1ccccc1F (configuration not stated) | i
Cc1cccc2c1-c1sc(C(=O)Nc3nccs3)cc1CO2 | i
CC(c1ccco1)N(C(=O)C12CC3CC(CC(C3)C1)C2)c1ccccn1 (configuration not stated) | 4.7
Cc1cc(C)c(C(=O)CSc2nnc(-c3ccccc3Br)o2)cc1C | i
Cn1c(=O)c2c(ncn2CC(=O)OCC(=O)NC2CCCc3ccccc32)n(C)c1=O (configuration not stated) | i
Cc1cccc(Cn2cc(SCC(=O)Nc3nccs3)c3ccccc32)c1 | 0.2
COc1ccccc1CC(=O)N1CCN(c2cccc(C(F)(F)F)c2)CC1 | i
Cc1cc(C)c2c(n1)sc1c(O)cc(=O)[nH]c12 | 0.3
COc1cc(NS(=O)(=O)c2ccc(C)cc2)c2ncccc2c1 | 2.2
CCOc1ccccc1-c1nc(C(N)=O)c2[nH]c(=O)n(-c3cccc(C)c3)c2n1 | 3.5
CCOC(=O)C(=CNc1cccc(C)n1)C(=O)OCC | i
CC1=Nn2c(nnc2-c2ccccc2)SC1 | 0.8
CC(C)NC(=O)c1ccccc1NC(=O)c1ccccc1N(C)S(C)(=O)=O | i
CCOC(=O)CNc1c(-c2ccc(O)cc2)nc2ccc(Cl)cn12 | 0.7
O=C(c1cccc(-c2nnc(-c3ccccc3)o2)c1)N1CCCCC1 | i
C=CCNC(=O)NC(=O)COC(=O)CCCSc1nc2ccccc2[nH]1 | i
Cc1ccccc1C(=O)N1CCN(c2ccc(NC(=O)c3ccco3)cc2Cl)CC1 | 1.1

Among those listed so far, 18 contain an NH in an aromatic ring:
SMILES | H5N1 CPE
COc1ccc(CNC(=O)c2cc(-c3ccccc3O)n[nH]2)cc1 | i
Cn1c(=O)[nH]c(=O)c2c1nc(CN1CCN(c3cccc(Cl)c3)CC1)n2Cc1ccccc1Cl | 1.4
CCN(CC)CCN(Cc1cc2cc(C)ccc2[nH]c1=O)C(=O)Nc1ccccc1OC | i
COC(=O)C1CCN(C(=O)COC(=O)c2n[nH]c3ccccc23)CC1 | 0.0
CC(C)(C)c1cc(C(=O)O)n[nH]1 | 0.2
Cc1cccc(C)c1NC(=O)N1CC=C(n2c(=O)[nH]c3ccccc32)CC1 | i
COCc1[nH][nH]c(=O)c1C=Nc1ccc(F)cc1F | i
Cc1nc2n[nH]c(N)c2c2c1COC(C)(C)C2 | i
CCC(c1nnnn1C(C)(C)CC)N(CCCO)Cc1cc2cccc(C)c2[nH]c1=O (configuration not stated) | 0.2
CCCn1c(N)c(C(=O)CSc2nc(C)cs2)c(=O)[nH]c1=O | 1.1
O=c1[nH][nH]cc1C=Nc1ccccc1O | i
Cn1c(Cc2cccs2)nnc1SCc1nc2ccccc2[nH]1 | 2.2
COC(=O)Cc1[nH]nc2c1C(c1cccc(OC)c1OC)C(C#N)=C(N)O2 (configuration not stated) | i
CC(Nc1cc(=O)n(C)c(=O)[nH]1)c1ccccc1 (configuration not stated) | 0.2
CCc1cccc2c(=O)c(C(=O)N3CCCCCC3)c[nH]c12 | i
Cc1cc(C)c2c(n1)sc1c(O)cc(=O)[nH]c12 | 0.3
CCOc1ccccc1-c1nc(C(N)=O)c2[nH]c(=O)n(-c3cccc(C)c3)c2n1 | 3.5
C=CCNC(=O)NC(=O)COC(=O)CCCSc1nc2ccccc2[nH]1 | i
